LASV entry inh – qHTS for Inhibitors of binding or entry into cells for Lassa Virus; Lassa virus pseudotype entry inhibition, cell reporter; control for the full effect not named in the record; Potency, µM (doses to about 37.9 µM), inactives show top-dose activity change, negative = inhibition, usual class: inhibitors; 300,000 tested, 1.2% active; active means well fitted inhibition curve with a large enough effect; inconclusive means small, poorly fitted or top-dose-only effect, or effect the other way; inactive means flat fitted curve, though single readings scatter; tested in HEK293 cells; further: on the % scale 0 is the no-effect control and ±100 the full control effect; nearly all actives have a fitted effect of over 50% in size; luciferase read-out
Cruzain inh Det – qHTS Assay for Promiscuous and Specific Inhibitors of Cruzain (with detergent). Potency, µM, inactives show max response, negative = inhibition, actives largely listed as inhibitors. 200,000 tested, 0.43% active. Cruzipain (Trypanosoma cruzi), P25779. AID 1478, 2009. purified cruzain, Z-FR-AMC fluorescence, 0.01% Triton;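 further: plate controls were neutral wells for no effect and buffer without enzyme for full effect; nearly all actives have a fitted effect of over 40% in size; top concentration of the series not given in the record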
Target sequence (P25779 123-467 limits assumed): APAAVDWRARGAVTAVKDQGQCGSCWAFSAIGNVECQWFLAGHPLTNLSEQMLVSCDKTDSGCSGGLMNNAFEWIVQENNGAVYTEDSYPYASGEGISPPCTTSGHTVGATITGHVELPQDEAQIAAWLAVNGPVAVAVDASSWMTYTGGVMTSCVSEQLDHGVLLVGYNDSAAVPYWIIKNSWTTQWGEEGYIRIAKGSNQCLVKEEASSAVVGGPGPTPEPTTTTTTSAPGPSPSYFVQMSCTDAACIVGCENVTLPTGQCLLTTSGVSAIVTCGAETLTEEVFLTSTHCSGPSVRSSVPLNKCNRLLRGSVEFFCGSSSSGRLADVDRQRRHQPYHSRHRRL
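Read-out: AMC fluorescence (360 nm excitation, 450 nm emission), four reads over 2 min, first-to-third difference used. Conditions: cruzain 1.5 nM, Z-FR-AMC 2 uM, pH 5.5 acetate, 5 mM DTT, 0.01% Triton X-100.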
2A StopGo – High Throughput Screening for Foot and Mouth Disease Virus Antivirals. human cells with a luciferase reporter of 2A StopGo recoding; control for the full effect not named in the record. Potency, µM (series often up to 57.9 µM), inactives show at the highest dose signal change, negative = less light. 410,000 tested, 1.2% active. AID 1159524, 2015; active = well fitted falling curve with a large enough effect; inconclusive = small, poorly fitted or top-dose-only effect; inactive = no such curve, though single readings can be large or run the other way; tested in HEK293T cells; further: on the % scale 0 is the no-effect control and ±100 the full control effect; nearly all actives have a fitted effect of over 45% in size; luciferase light after 4 h
RE007 growth inh – qHTS Assay for Inhibitors of the HIV-1 protein Vpr | S. pombe RE007 Vpr strain, BacTiter-Glo ATP luminescence, 24 h; control for the full effect not named in the record | Potency, µM (titrated, usually from 92.2 µM), for the others: at the top dose activity change, negative = less growth | 360,000 tested, 0.21% active; active = well fitted falling curve with a large enough effect; inconclusive = small, poorly fitted or top-dose-only effect; inactive = no such curve, though single readings can be large or run the other way;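 further: on the % scale 0 is the no-effect control and ±100 the full control effect; nearly all actives have a fitted effect of over 50% in size; the assay follows cell death caused by Vpr and the record does not say whether a fall means rescue or toxicity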
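Fission yeast strain RE007, carrying one chromosomally integrated HIV-1 vpr copy, was seeded at OD 0.01 in PMG+AL medium with 23 nL pinned compound. After 24 h at 30 °C and 99% humidity, viability was read by BacTiter-Glo luminescence.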
NS1 inh – qHTS Assay for Inhibitors of Influenza NS1 Protein Function; S. cerevisiae slowed by influenza A NS1, growth recovery by OD600; Potency, µM (series often up to 46.1 µM), inactives show at the top dose activity, positive = more growth; 270,000 tested, 0.4% active; active means well fitted rising curve with a large enough effect; inconclusive means small, poorly fitted or top-dose-only effect; inactive means no such curve, though single readings can be large or run the other way; further: nearly all actives have a fitted effect of over 50% in size
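S. cerevisiae expressing influenza A NS1, grown in glucose, washed, then diluted 1:100 into pH 6.0 -URA galactose medium with 23 nl compound. Growth recovery read as OD600; NS1-free strain serves as control.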
SARS PLP yeast – qHTS of Yeast-based Assay for SARS-CoV PLP | S. cerevisiae expressing SARS-CoV PLpro, growth rescue; control for the full effect not named in the record | Potency, µM (doses to about 32.9 µM), for the others: at the highest dose activity, positive = growth rescue | 330,000 tested, 0.19% active | AID 485353, 2010; active means well fitted rising curve with a large enough effect; inconclusive means small, poorly fitted or top-dose-only effect; inactive means no such curve, though single readings can be large or run the other way; further: 0% is about no effect; nearly all actives have a fitted effect of over 55% in size; growth read by luminescence after 48 h
Marburg entry inh – qHTS for inhibitors of binding or entry into cells for Marburg Virus; Marburg virus pseudotyped entry inhibition, cell reporter; control for the full effect not named in the record; about a third of the inactives were read at about 46 µM; 300,000 tested, 1.8% active; Potency, µM (titrated, usually from 37.8 µM), for inactives: top-dose activity change, negative = inhibition, usual class: inhibitors; AID 540276, 2011; active = well fitted inhibition curve with a large enough effect; inconclusive = small, poorly fitted or top-dose-only effect, or effect the other way; inactive = flat fitted curve, though single readings scatter; tested in HEK293 cells; about a fifth of its hits are not listed in these tables; further: on the % scale 0 is the no-effect control and ±100 the full control effect; luciferase read-out
Cruzain noTriton – qHTS Assay for Promiscuous and Specific Inhibitors of Cruzain (without detergent). purified cruzain, Z-FR-AMC fluorescence, no detergent. 200,000 tested, 2.3% active. AID 1476, 2009. Potency, µM, without a hit: max response, negative = inhibition, actives largely listed as inhibitors. Cruzipain (Trypanosoma cruzi), P25779;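 further: plate controls were enzyme without inhibitor for no effect and buffer without enzyme for full effect; nearly all actives have a fitted effect of over 40% in size; top concentration of the series not given in the record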
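Purified cruzain at 1.5 nM, pre-incubated 15 min with compound at room temperature in 100 mM sodium acetate pH 5.5, 5 mM DTT, 0.00005% Triton X-100. Reaction started with 2 uM Z-FR-AMC; AMC fluorescence increase over 60 s gives rate.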
An asterisk follows results filed as active; u = inconclusive; x = not tested or not shown; & = joins results of further samples; [ ] = dose if it differs, or a comment. Unless noted, the call rests on the fitted dose curve; in most records, active means well fitted curve in the direction sought with a large enough effect; inconclusive means small, poorly fitted or top-dose-only effect, or another doubt; inactive means no such curve, though single readings can be large; an effect the other way counts as inactive or inconclusive. Potency means the concentration at half of the fitted maximal effect.

nr	SMILES	LASV entry inh	Cruzain inh Det	2A StopGo	RE007 growth inh	NS1 inh	SARS PLP yeast	Marburg entry inh	Cruzain noTriton
1	N#Cc1nc(-c2cccs2)oc1NCCc1ccccc1	4%	u	-1%	-10%	-141%	-15%	-20%[46.1 µM]	u
2	Cc1ccc2nc(C3CCCCC3)[nH]c2c1	x	x	41%[activator]	-14%	-5%	-5%	x	x
3	CCC(C)NC(=O)Cn1cc2c(n1)CCC(C)C2 (stereo unspecified)	x	-1.3%	-20%	-9%	u	-1%	x	3%
4	Oc1ccc(C(=S)N2CCCCC2)cc1Cl	-10%	1.7%	-23%	-10%	-4%	-4%	-16%	5%
5	COc1ccc(Nc2nc(C)cc(C)c2C(N)=O)c(OC)c1	-2%	-1.2%	x	-8%	-2%	5%	3%	-3%
6	O=S(=O)(/C=C/c1ccccc1)NC1CCCCCCC1	8%	-5.4%	41%[activator]	12%	-32%	-51%	-6%	-23%
7	CCc1ccccc1NC(=O)CNCc1ccccc1	7%	x	12%	3%	-4%	0%	-4%[46.1 µM]	x
8	O=c1cc(CN2CCN(c3ccc(F)cc3)CC2)nc2sccn12	-1%	-2.9%	-19%	2%	0%	6%	17%	1%
9	CCc1ccc(N2CN=c3s/c(=C\c4ccccc4)c(=O)n3C2)cc1	15%	x	3%	-5%	0%	1%	0%	x
10	CCCCOC(=O)CSC1=C(C#N)C(c2cccnc2)C(C(=O)OCC)=C(c2ccccc2)N1 (stereo unspecified)	u	x	-13%	18%	x	0%	u	x
11	Cc1ccc(-n2nnnc2-c2nc3ccccc3s2)cc1	0%	0.2%	8%	36%	20%	-5%	7%	-11%
12	O=C(CCN1C(=O)/C(=C/c2ccc(F)cc2)SC1=S)NCCCn1ccnc1	x	x	-4%	6%	-7%	-1%	x	x
13	O=C(CCCCCNC(=O)N1CCn2c1nc1ccccc12)NCc1ccccc1Cl	x	x	-4%	-7%	-22%	-4%	x	x
14	Cc1nnsc1C(=O)N/N=C/c1ccc2ccccc2c1O	u	-4.6%	u	0%	9%	1µM*	u	-13%
15	CC(=O)O[C@H]1CC2(C)[C@@H](C[C@@H](O)[C@H]3[C@@]4(C)CC[C@@H](O)[C@@H](C)[C@@H]4CC[C@@]32C)C1=C(CCC=C(C)C)C(=O)O (stereo partly specified)	2%	-6.6%	x	x	u	x	u	u
16	CC(=O)Nc1ccc(-c2ccnc(-c3ccc(NC(C)=O)cc3)n2)cc1	9%	x	-2%	-3%	2%	-1%	u	x
17	NS(=O)(=O)c1ccc(NC(=S)Nc2ccc(F)c(F)c2)cc1	17%	-4.8%	-2%	11%	-49%	-14%	-12%	-16%
18	COc1cc2cc(C(=O)N3CC(COS(C)(=O)=O)c4ccc(O)cc43)[nH]c2c(OC)c1OC (stereo unspecified)	x	x	6.3µM*	u	x	x	x	x
19	CN(CC(O)COCc1cccs1)C1CCCCC1 (stereo unspecified)	15%	3.6%	-18%	-4%	-2%	0%	1%	-4%
20	O=C(O)C1CCCN1C(=O)Nc1ccc(F)cc1 (stereo unspecified)	-1%	3.9%	-10%	-11%	1%	9%	3%	-3%
21	CN(C)C(CNc1ccc(C(F)(F)F)cc1[N+](=O)[O-])c1ccccc1 (stereo unspecified)	x	x	-18%	-27%	0%	2%	-15%[46.1 µM]	x
22	CCOC(=O)N1CCN(S(=O)(=O)c2ccc(C(=O)N(CCCN(C)C)c3nc4ccc(CC)cc4s3)cc2)CC1	-42%[46.1 µM]	x	-7%	13%	10%	-3%	u	x
23	Cc1ccc([C@@H]2[C@@H]3C(=O)N(C)C(=O)[C@@H]3[C@]3(Cc4ccccc4)C(=O)N(CCO)CC(=O)N23)o1	x	x	4%	0%	-8%	2%	x	x
24	CCOc1ccccc1NC(=O)CSc1nnc(Cc2ccc(OC)cc2)c(=O)n1N	-15%	x	-14%	31%	x	4%	0%	x
25	COc1cc(Cl)c(C)cc1NC(=O)CSCC#N	5%	-4.4%	-23%	-3%	6%	16%	-3%	u
26	COc1ccccc1NC(=O)COC(=O)CCC(=O)c1cccs1	-11%	x	-17%	29%	x	-1%	27%	x
27	C=CCNC(=O)c1c(Br)cnn1-c1ccc(C)cc1	-2%[46.1 µM]	x	30%	2%	-3%	0%	u	x
28	Cc1ccc(OCc2cc(C(=O)NCCc3cccnc3)no2)cc1C	x	x	-8%	-15%	-29%	-3%	x	x
29	Cc1cc(NC(=O)c2ccc(Cl)cc2)n(-c2ccccc2)n1	x	x	2%	1%	-4%	0%	x	x
30	O=c1[nH]c(=S)[nH]c2nccnc12	6%[46.1 µM]	x	-13%	12%	x	x	u	x
31	CCc1ccc(S(=O)(=O)Nc2cc(-c3cn4ccccc4n3)ccc2C)cc1	-6%[46.1 µM]	-3.1%	11%	x	x	x	9%[46.1 µM]	22%
32	Cc1nnc(SCC2CCCO2)n1-c1ccccc1 (stereo unspecified)	7%	4.0%	0%	10%	4%	-1%	3%	-5%
33	CC(C)(C)c1cc(-c2ccccc2)no1	-12%[46.1 µM]	x	-9%	3%	-1%	1%	1%[46.1 µM]	x
34	Cc1ccc(NC(=O)N2CCN(Cc3ccc4c(c3)OCO4)CC2)cc1	-19%[14.3 µM]	14%	-4%	9%	7%	14%	u	-1%
35	COc1ccc(CCNC(=O)C2CCCN2C(=O)Nc2cccc(OC)c2)cc1 (stereo unspecified)	x	x	8%	-3%	3%	-5%	x	x
36	COc1ccc(CC(=O)OCC(=O)N(C)C2CCS(=O)(=O)C2)cc1OC (stereo unspecified)	u	x	6%	-15%	x	x	u	x
37	Cn1c(SCC(=O)Nc2ccc(C(N)=O)cc2)nc2c(c1=O)SCC2	8%	x	-11%	2%	u	3%	11%	x
38	CN(C)c1ccc(-c2nn3c(-c4ccccc4Cl)nnc3s2)cc1	u	-19%	-11%	-4%	-3%	5%	-33%	5%
39	CCCN(CC(=O)Nc1ccccc1OC)C(=O)c1ccc2[nH]c3c(c2c1)CC(C)CC3 (stereo unspecified)	u	x	u	16%	x	-2%	u	x
40	CCc1nccn1CCC(=O)NC1CCCc2c1cnn2-c1ccc(F)cc1F (stereo unspecified)	x	x	u	0%	8%	-2%	x	x
41	CC(C)C(=O)N1CCN(c2ccc([N+](=O)[O-])c(NC(C)c3ccccc3)c2)CC1 (stereo unspecified)	u	-12%	u	1%	-7%	17%	u	u
42	COC(=O)c1cc(S(=O)(=O)N2CCCC2)c(Cl)cc1Cl	24%[46.1 µM]	x	-10%	-1%	-24%	-8%	-7%[46.1 µM]	x
43	Cc1cccc(N2CCN(C(=O)c3cc(=O)[nH]c4ccccc34)CC2)c1C	x	x	-15%	-1%	-5%	2%	x	x
44	CCOC(=O)Cn1c(CN(C)Cc2ccccc2)nc2c1c(=O)n(C)c(=O)n2C	1%	x	14µM*	1%	-12%	x	-11%	x
45	Cn1c(O)c(C(=Nc2ccc(F)cc2)c2ccccc2)c(=O)n(C)c1=O	-9%	x	-20%	105%	3%	1%	-1%[46.1 µM]	x
46	CCOC(=O)c1c(Nc2nc(C)c(C(=O)NC)s2)sc(C)c1C	-7%	-1.6%	u	3%	7%	-4%	u	u
47	COc1ccc2cc(C(=O)C3CCCN(C(=O)c4ccnn4C)C3)ccc2c1 (stereo unspecified)	x	x	3%	56%	-7%	0%	x	x
48	CCC(Sc1nc2ccccc2c2nc(CCn3c(C)nc4ccccc43)nn12)C(=O)Nc1ccc(F)cc1 (stereo unspecified)	26%[46.1 µM]	1.7%	1%	x	x	x	x	-4%
49	CCCc1cc(C(=O)Nc2ccc(C(=O)c3ccc(C)cc3)cc2)n(C)n1	u	x	-29%	2%	-10%	-4%	u	x
50	O=C(CN1C(=O)C2CC=CCC2C1=O)Nc1ccc(S(=O)(=O)Nc2nccs2)cc1 (stereo unspecified)	x	x	-6%	8%	9%	-5%	x	x
51	COc1ccc(S(=O)(=O)NC2(C(F)(F)F)NC(=O)N(CCc3ccccc3)C2=O)cc1 (stereo unspecified)	-7%[46.1 µM]	-3.8%	42%&16%[activator]	9%	3%	-2%	-16%&19%[46.1 µM]	-1%
52	NC(CSC1(c2ccc(Cl)cc2)c2ccccc2-c2ccccc21)C(=O)O (stereo unspecified)	-3%	x	-23%	16%	x	x	1%	x
53	N#Cc1c(N)c(C(=O)c2ccccc2)n2c1CCC2	3%	-0.2%	1%	11%	4%	-5%	-1%	-18%
54	CCc1cc(=O)[nH]c(SC/C=C/c2ccccc2)n1	x	x	-12%	8%	-2%	u	x	x
55	COC(=O)[C@H](CC(C)C)NC(=O)NC1CCCc2ccccc21 (stereo partly specified)	-17%	-2.3%	-10%	11%	-30%	-6%	-17%	4%
56	CCN(CC)C(=O)c1cn(CCC#N)nc1-c1ccc(F)cc1	1%	x	21%	-17%	x	-4%	-3%[46.1 µM]	x

(next part)
nr	SMILES	LASV entry inh	Cruzain inh Det	2A StopGo	RE007 growth inh	NS1 inh	SARS PLP yeast	Marburg entry inh	Cruzain noTriton
57	O=C(Nc1ccccc1)c1ccc(=O)n(Cc2ccc(F)c(F)c2)c1	11%[46.1 µM]	x	-22%	16%	-5%	3%	u	x
58	O=C(CCc1ccc(S(=O)(=O)NCCc2ccccc2)cc1)NCc1ccco1	-6%	-6.9%	-1%	15%	0%	-16%	-4%	0%
59	CC(Sc1oc(-c2cccs2)nc1S(=O)(=O)c1ccccc1)c1ccccc1 (stereo unspecified)	u	-7.4%	10%	x	x	x	0%[46.1 µM]	-21%
60	CN(C)S(=O)(=O)c1cccc(N=c2scc(-c3ccc4c(c3)NC(=O)CO4)n2CC2CCCO2)c1 (stereo unspecified)	u	-0.7%	28µM*	8%	6%	5%	u	17%
61	O=C(CNC(=O)OCc1ccccc1)NC1CCCCNC1=O (stereo unspecified)	4%[46.1 µM]	x	3%	-15%	2%	-1%	5%[46.1 µM]	x

High-throughput results deposited in PubChem by National Center for Advancing Translational Sciences (NCATS).
